# High-throughput results deposited in PubChem by several laboratories.
# CBX7 inh: blocks human CBX7 binding to H3K27me3 peptide | O95931 | AlphaScreen His6-CBX7 / biotin-H3K27me3 peptide binding; stronger effect = lower value | normalised signal (fraction of DMSO) (no concentration beside the values) | 1.1% of 66,000 active; in the data active = normalised signal below about 0.5;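 note: 100 nL library stock added to about 20 µL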
# Target sequence (O95931 whole entry, looked up): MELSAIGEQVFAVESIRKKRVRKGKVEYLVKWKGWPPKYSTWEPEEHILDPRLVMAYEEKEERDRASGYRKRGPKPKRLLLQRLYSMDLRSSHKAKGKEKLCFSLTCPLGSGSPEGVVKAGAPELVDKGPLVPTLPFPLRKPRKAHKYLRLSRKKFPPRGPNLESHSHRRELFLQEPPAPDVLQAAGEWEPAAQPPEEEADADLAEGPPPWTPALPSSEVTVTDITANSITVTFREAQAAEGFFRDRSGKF
# CBX7 inh z-score: second read-out of CBX7 inh, no call of its own (marks repeat the call); z-score; measured here: z-score of CBX7 signal; some inactives read as strong as hits; reference of the scale not given here;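 same signal on another scale; lower means less binding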
# Numbers without * were called inactive; & = joins results of further samples.
no.	mol	CBX7 inh	CBX7 inh z-score
1	CCOc1ccc(N(CC)C(=O)CCc2nc(-c3ccccc3F)no2)cc1	0.91	-1.9
2	Cc1cccc(CS(=O)(=O)CC2Nc3ccc(C(=O)O)cc3NC2=O)c1 (stereo not drawn)	0.97	-0.67
3	CCc1ccc(-c2ccc(C(=O)Nc3ccc(OC)cc3)cc2)nc1	1.1	2.2
4	N#Cc1ccc(NC(=O)c2cc(-c3ccc4c(c3)OCO4)on2)cc1	1	0.77
5	CCC(C)NC(=O)c1cc2n(n1)C(C(F)(F)F)CC(c1ccc(Cl)c(Cl)c1)N2 (stereo not drawn)	0.96	-0.69
6	CCCCOc1ccc(C(C)NC(=O)c2cc(Sc3nnc(C)s3)nc3ccccc23)cc1 (stereo not drawn)	1	0.18
7	Cc1ccc(CNC(=O)C2CCN(S(=O)(=O)c3cnc[nH]3)CC2)cc1	0.94	-0.73
8	COc1cccc(C(=O)N2CC(=O)Nc3ccc(C)cc3C2c2ccccc2)c1 (stereo not drawn)	1.1	0.075
9	CCCn1c(=N)n(CC(O)COc2ccccc2C)c2ccccc21 (stereo not drawn)	0.95	-0.67
10	CC1CCCC(C)N1CC(O)COCc1ccc(Cl)cc1 (stereo not drawn)	0.96	-0.63
11	CCOC(=O)CNS(=O)(=O)c1cc(-c2nnc(Nc3ccc(C)cc3)c3ccccc23)ccc1C	0.87	-2.5
12	CCn1cc(C(=O)NCC2COc3ccccc3O2)c2cc(OC)c(OC)cc2c1=O (stereo not drawn)	1.1	0.79

# Record cards, from the list above. Order of values: CBX7 inh | CBX7 inh z-score
# CCOc1ccc(N(CC)C(=O)CCc2nc(-c3ccccc3F)no2)cc1 in the list: 0.91 | -1.9
# CCOC(=O)CNS(=O)(=O)c1cc(-c2nnc(Nc3ccc(C)cc3)c3ccccc23)ccc1C in the list: 0.87 | -2.5
# N#Cc1ccc(NC(=O)c2cc(-c3ccc4c(c3)OCO4)on2)cc1 in the list: 1 | 0.77
# Cc1cccc(CS(=O)(=O)CC2Nc3ccc(C(=O)O)cc3NC2=O)c1 (stereo not drawn) in the list: 0.97 | -0.67
# CC1CCCC(C)N1CC(O)COCc1ccc(Cl)cc1 (stereo not drawn) in the list: 0.96 | -0.63

# (more compounds)
no.	mol	CBX7 inh	CBX7 inh z-score
13	COc1ccc(-c2cc(C(F)(F)F)nc(NCc3ccccc3)n2)cc1	1.2	8.8
14	CCOc1ccccc1C(=O)NCCc1cc2ccc(C)c(C)c2[nH]c1=O	1.2	1.2
15	Cc1ccc(NC(=O)Cn2cnc3sc4c(c3c2=O)CCCC4)cc1F	1	0.41
16	O=C(NCc1ccc2c(c1)OCO2)c1ccc2c(=O)n3c(nc2c1)CCCCC3	0.9	-1.7
17	COc1cc2ccccc2cc1-c1nnc(COc2ccccc2)o1	0.96	-0.58
18	O=C(CSc1ncc(-c2ccccc2)[nH]1)Nc1ccc(F)cc1F	0.86	-3.7
19	CCCc1sc(Nc2cccc(OC)c2)nc1-c1ccc(Cl)c(Cl)c1	0.83&0.71	-2.7&-3.2
20	CCCc1cc(C(=O)Nc2ccc(C)cc2)no1	1.1	2.9
21	CCN1C(=O)c2ccccc2S(=O)c2ccc(C(=O)N3CC(C)CC(C)C3)cc21 (stereo not drawn)	0.97	-0.74
22	CCOC(=O)N1CCN(C(=O)c2cnn(-c3ccccc3)c2-n2cccc2)CC1	1	0.34
23	Cc1ccccc1Nc1c(-c2ccsc2)nc2ccc(Cl)cn12	1	0.6
24	Cc1ccn2c(NC(=O)CCc3ccccc3)c(-c3ccc(F)cc3)nc2c1	0.99	-0.42
25	CCOc1cc2c(cc1OCC)C(c1ccc(CC)cc1)CC(=O)N2 (stereo not drawn)	0.69	-4
26	O=c1oc2ccc3ccccc3c2cc1-c1nnc(-c2cccc(Cl)c2)o1	0.97	-0.51
27	COc1cccc(-c2noc(CCC(=O)N3CCN(c4ccc(N5CCOCC5)nn4)CC3)n2)c1	1	0.81
28	CCN(Cc1ccccc1)C(=O)c1cn(CC)c2nc(C)ccc2c1=O	1	0.47
29	Cn1c(SCC(N)=O)nnc1-c1c[nH]c2ccccc12	1.1	1.3
30	COc1ccc(Cc2nnc(NC(=O)c3cccc(NC(=O)c4ccccc4)c3)s2)cc1	0.94	-1.3
31	CC1NC(=O)NC1CCCCCC(=O)OCC(=O)c1ccccc1 (stereo not drawn)	0.16*	-21*
32	CCSc1c(-c2ccccc2)nc2ccccc2c1C(=O)O	1.1	1.3
33	CC(C(=O)NCCCN1CCN(C)CC1)n1ncc2ccccc21 (stereo not drawn)	0.85	-2.3
34	CCOc1cc(CNc2ccc(C(=O)O)cc2)ccc1OCc1ccccc1	0.97	-1.1
35	NC(=O)c1oc2ccccc2c1NC(=O)c1ccc(Br)cc1	1.1	0.32
36	CCCCCCCCn1c(-c2nonc2NC(C)=O)nc2ccccc21	1.1	3.3
37	Cc1ncc(CO)c2cc(-c3nnc(Nc4ccc(F)c(Cl)c4)s3)c(=O)oc12	1.2	1.1
38	Cc1cc(N2CCCCC2)nc2ccc(NC(=O)C3CCCCC3)cc12	1.2	1.9
39	O=C(CCC1CCCC1)Nc1c2c(nn1-c1cccc(Cl)c1)CSC2	1	0.27
40	c1ccc(OCc2nc3ccccc3n2CCC2CCCCC2)cc1	1	1.3
41	O=C(C1CCN(c2nnc(-n3cccc3)s2)CC1)N1CCc2ccccc21	0.96	-0.41
42	Cc1cc(N2CCOCC2)nc2ccc(NC(=O)c3ccncc3)cc12	0.93	-1.8
43	CCc1ccccc1NC(=O)c1cc(-c2ccc(OC)cc2)on1	1.2	0.66
44	COc1cccc(-n2ccnc2SCC(=O)Nc2cccc(C(F)(F)F)c2)c1	0.92	-1.4
45	COC(=O)c1ccc(COc2cc([N+](=O)[O-])cc3cccnc23)o1	0.79	-4.7
46	O=c1[nH]c2ccc(NS(=O)(=O)c3ccc(F)cc3)cc2[nH]1	1.1	3.4
47	CCn1c(C(=O)NCc2ccc(C)cc2)cc2sc(Cl)cc21	1.1	2.4
48	COC(CNC(=O)CN1CCN(Cc2ccccc2)C1=O)OC	0.95	-0.68
49	CCCCCn1c(CNC(=O)Cc2ccccc2)nc2ccccc21	0.96	-0.37
50	Cc1ccc(CCNC(=O)C2CCC(CNS(=O)(=O)c3cccc4cccnc34)CC2)cc1 (stereo not drawn)	0.99	-0.62
51	O=C(O)c1cccc(Nc2nc(-c3c[nH]c4ccccc34)cs2)c1	1	-0.046
52	Cc1c(C(=O)NCc2ccc3c(c2)OCO3)oc2ccc(S(=O)(=O)N3CCOCC3)cc12	1	0.079
53	COc1ccc(C(=O)NCc2cc3cc(Cl)ccc3[nH]2)cc1COc1ccccc1Cl	1	-0.026
54	Cc1nc2c(-c3ccc(Cl)cc3)c(C)[nH]n2c(=O)c1Cc1ccccc1	1.1	1.1
55	Cc1cc(=O)[nH]c(Nc2nc3ccccc3s2)n1	1	0.36
56	Cc1ccc(CSc2nc3c(c(=O)[nH]2)CCCC3)cc1	1	0.57
57	CCCn1cnc2cc(NCc3cccc(OC)c3)ccc21	0.56	-13
58	CCC(=O)N1c2ccccc2NC(=O)CC1C (stereo not drawn)	1	0.14
59	Cc1cccc(Nc2nnc(-c3ccc(C)c(S(=O)(=O)NCCO)c3)c3ccccc23)c1	0.95	-0.54
60	CCOc1ccccc1OCCn1c(-c2ccc(Cl)cc2)nc2ccccc2c1=O	1.5	4.8
61	Cc1ccc(-c2nc(NCCO)c3ccccc3n2)cc1	0.98	-0.02
62	CCC(=O)Nc1ccc(Cl)c(-c2nc3ncccc3o2)c1	1	0.017
63	COc1cc2c(C(=O)N3CCN(Cc4ccccc4)CC3)c(C)n(-c3ccccc3)c2cc1Br	0.8	-6.4
64	COc1ccc(N2Cc3cccc(C(=O)NCCc4ccc(OC)c(OC)c4)c3C2=O)cc1	1	1.8
65	CCCCNC(=O)c1oc2ccc(S(=O)(=O)N3CCCC3)cc2c1C	0.93	-1.4
66	Cc1c(C(=O)Nc2ccc(N3CCOCC3)c(Cl)c2)oc2ccccc12	1.1	1.8
67	CCCCCCOc1ccc(N2C(=O)CC(N3CCSCC3)C2=O)cc1 (stereo not drawn)	1.1	0.58
68	Cc1ccc(S(=O)(=O)c2nc(-c3cccs3)oc2SCC(=O)Nc2cc(C)cc(C)c2)cc1	0.96	-0.077
69	CN(CCc1ccccn1)C(=O)c1n[nH]c(=O)c2ccccc12	1.1	0.62
70	CC(=O)N1CCc2cc(Br)cc(S(=O)(=O)NCCCN3CCC(C)CC3)c21	0.98	-0.49
71	CCc1ccc(OCC(=O)N(Cc2nc(-c3cccc(C)c3)no2)C(C)C)c(Br)c1	1	0.12
72	COc1ccc(-c2noc(CCc3ccccc3)n2)cc1	1.3	9.3

# Some of these compounds in order of number of heavy atoms, highest first.
no.	mol	CBX7 inh	CBX7 inh z-score
68	Cc1ccc(S(=O)(=O)c2nc(-c3cccs3)oc2SCC(=O)Nc2cc(C)cc(C)c2)cc1	0.96	-0.077
70	CC(=O)N1CCc2cc(Br)cc(S(=O)(=O)NCCCN3CCC(C)CC3)c21	0.98	-0.49
65	CCCCNC(=O)c1oc2ccc(S(=O)(=O)N3CCCC3)cc2c1C	0.93	-1.4
69	CN(CCc1ccccn1)C(=O)c1n[nH]c(=O)c2ccccc12	1.1	0.62
72	COc1ccc(-c2noc(CCc3ccccc3)n2)cc1	1.3	9.3

# (list continues)
no.	mol	CBX7 inh	CBX7 inh z-score
73	O=C(Nc1nnc(C2CCCCC2)s1)c1ccc(Cl)cc1	1	1.2
74	CCc1ccc(-c2nc(C(=O)NCCC(C)C)c(C)o2)cc1	0.84	-2.9
75	COc1ccc(CNC(=O)CC2C(=O)N(Cc3ccccc3)C(C)c3nc4ccccc4n32)cc1 (stereo not drawn)	0.87	-2
76	Cc1cccc(OCCn2c(C3CC(=O)N(c4cc(C)cc(C)c4)C3)nc3ccccc32)c1 (stereo not drawn)	1.1	0.76
77	Cc1cc2c(cc1C)C(c1ccccc1Br)CC(=O)N2 (stereo not drawn)	0.99	-0.068
78	COc1cccc(CNS(=O)(=O)c2ccc3[nH]cc(C(=O)O)c(=O)c3c2)c1	0.9	-2
79	Cc1sc2ncnc(SCC(=O)Nc3ccc4ccccc4c3)c2c1C	1	0.054
80	Cc1cccc(-c2nc(Nc3ccc(Cl)cc3)c3ccccc3n2)c1	1.4	8.9
81	COc1ccccc1C(CCNc1ccc2c(c1)OCO2)c1ccc2c(c1)OCO2 (stereo not drawn)	1	0.2
82	CCOc1ccccc1-n1cnc2cc(C(=O)N3CCOCC3)ccc21	1	0.55
83	CC(C)Cc1nnc(NC(=O)Nc2ccccc2)s1	0.85	-1.9
84	CC(=O)NC(C)c1nc2ccccc2n1Cc1ccccc1C (stereo not drawn)	0.92	-1.2
85	CCOC(=O)N1CCC(N2C(=O)c3ccc(C(=O)Nc4cc(F)ccc4F)cc3C2=O)CC1	0.93	-0.17
86	Cc1cccc(-c2nc(CN3CCCC(C(=O)NC4CCCCC4C)C3)c(C)o2)c1 (stereo not drawn)	1.1	1.8
87	CC(=O)Nc1cccc(-c2cnc3ccccc3n2)c1	0.97	-0.63
88	Cc1c(C(=O)NCc2c(F)cc(F)cc2F)oc2ccc(S(=O)(=O)N3CCOCC3)cc12	0.99	-0.17
89	CCOC(=O)c1ccccc1NC(=O)CN1C(=O)CC(c2ccccc2)Sc2ccccc21 (stereo not drawn)	0.82	-3.1
90	CCOC(=O)c1cnc2ccccc2c1Nc1ccccc1CC	0.89	-1.2
91	CCCCSc1oc(-c2ccc(F)cc2)nc1S(=O)(=O)c1ccccc1	1.1	0.14
92	CC1CC(C)CN(C(=O)CCCN2C(=O)CSc3ncccc32)C1 (stereo not drawn)	1	0.1
93	CCS(=O)(=O)NCCc1cc2ccc(C)c(C)c2[nH]c1=O	1.1	1.7
94	N#Cc1nc(COc2cccc(Cl)c2)oc1N1CCCC1	0.75	-1.6
95	Cc1ccc(-c2noc(CCC(=O)NCCC(C)C)n2)cc1	1.1	2.2
96	CCOc1ccc(NC(=O)C2=CCN(S(=O)(=O)c3ccc(F)cc3)CC2)cc1	1.1	1.1
97	Cc1ccc(Cn2c(C(=O)Nc3cccnc3Cl)cc3sccc32)cc1	0.92	-2.2
98	O=C(NCCCn1ccnc1)C(=O)NC1CCCCC1	0.99	-0.26
99	Cc1cccc(OCc2nc(-c3ccc(NC(=O)c4cccs4)cc3)no2)c1C	1.1	1.3
100	Cc1ccc(OCC(=O)Nc2ccc(-c3nc4cc(C)ccc4o3)cc2)cc1	1.1	0.96
101	Cc1nc2c(C(=O)NCc3ccccc3)cnn2c(C)c1Cc1cccc(Br)c1	1.2	1.5
102	Cc1cccc(CCNC(=O)c2cc(Nc3ccccc3)nc3ccccc23)c1	1.1	1.7
103	CC(=O)N1CCc2cc(S(=O)(=O)NC(CC(C)C)C(=O)Nc3ccc(C)c(F)c3)ccc21 (stereo not drawn)	1	0.26
104	COc1ccccc1Cn1c(COc2ccccc2)nc2ccccc21	1	0.92
105	COc1ccc(CCn2c(=O)c3cccnc3n(Cc3ccc(F)cc3)c2=O)cc1OC	0.96	-0.44
106	O=C(Nc1ccc(-c2nc3ncccc3o2)cc1)c1ccc(-c2cccc(Cl)c2)o1	0.98	-0.44
107	COc1cc(OC)c(NC(=O)Cc2cn(C)c3ccccc23)cc1Cl	0.78	-4.8
108	CCOCCc1nnc(NC(=O)c2cccc(Br)c2)s1	1.2	0.65
109	Cc1ccc2ncnc(NC(CC(=O)O)C(=O)O)c2c1 (stereo not drawn)	0.98	-0.39
110	Cc1cc(=O)nc2sc(N3CCC(C(=O)O)CC3)nn12	1	0.19
111	Cc1cc(C)c(S(=O)(=O)NCCc2c(C)[nH]c3ccc(Br)cc23)c(C)c1	0.79	-3.3
112	O=c1[nH]c2ccc(NCc3cc(Cl)cc(Cl)c3OCc3ccccc3)cc2[nH]1	0.68	-0.44
113	CCOC(=O)c1ccccc1NC(=O)COc1cc(=O)n(CC)c2ccccc12	0.88	-2
114	O=C(O)c1ccc(OCC(O)Cn2c(Cc3ccccc3)nc3ccccc32)cc1 (stereo not drawn)	1.1	1.1
115	CCCCNC(=O)c1cc(Nc2ccccc2OC)nc2ccccc12	1.1	0.14
116	Cc1ccccc1Nc1cc(C)c2c(O)cccc2n1	0.92	-1.6

# Some of the compounds tested, so the mix of outcomes need not match the whole.
